NPYLR7 ag = mosquito NPYLR7 agonism | activation, % at 10 µM | HEK293T NPYLR7/Galpha15, GCaMP6s calcium fluorescence | 270,000 compounds, 0.15% hits | AID 1259423; in the data active = activation above about 40%;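 note: 0% = vehicle and 100% = reference agonist at the receptor; some compounds past the cut are filed as inactive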
NPYLR7 ag max-min = further read-out of NPYLR7 ag, marked with its call; activation, %; measured here: Max-Min RFU normalised activation; some inactives read as strong as hits;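 span of the calcium signal over five minutes; 0% = vehicle and 100% = native peptide agonist; compound fluorescence can raise it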
* hit, by the source's call; & = joins results of further samples. Some of the compounds tested; the hit share may differ from the screen's.

SMILES | NPYLR7 ag | NPYLR7 ag max-min
CCOc1ccccc1C(=O)N1CCC(N)CC1 | -1 | -3
COC(=O)c1ccc(CSc2nc3c(cnn3CCO)c(=O)[nH]2)cc1 | 2 | 0
COc1ccccc1CN1C(=O)C(C)ON=C1c1ccc2c(c1)CCO2 (stereo not drawn) | 4 | 5
CCOc1ccc(C(C2Sc3nc(CC)nn3C2=O)N2CCN(C)CC2)cc1 (stereo not drawn) | -2 | -2
CCOc1ccc(CN2CCN(Cc3cc(C)cc(C)c3)C(=O)C2)cc1CO | 8 | -1
CC(C)Cc1nnc(-c2cc3ccccc3n2CC(=O)NCc2ccccc2Cl)o1 | -1 | -1
CS(=O)(=O)N1CCC(C(=O)Nc2c3c(nn2CC(=O)NCc2ccc(F)cc2)CSC3)CC1 | 2 | 3
C=C(C)Cn1c(CN2CCOCC2)nc2c1c(=O)n(C)c(=O)n2C | 9 | 2
CCC(C)N(Cc1cccc(OS(=O)(=O)c2ccc(F)cc2)c1)C(=O)Nc1c(C(C)C)cccc1C(C)C (stereo not drawn) | -6 | -7
O=C(CCc1nc(C2CC2)no1)N1CCCC(n2cncn2)C1 (stereo not drawn) | 4 | 5
Cn1c(=O)c2c(-c3c(F)cccc3Cl)c(Nc3ccccc3)oc2n(C)c1=O | -6 | -8
Cc1cn(C)nc1C(=O)N(Cc1ccccn1)c1nc2c(Cl)cccc2s1 | 4 | 9
Cn1nnc2c(=O)n(Cc3ccc(C(F)(F)F)cc3)cnc21 | 0 | 5
CC(Sc1nnc(-c2cccnc2)o1)C(=O)N1CCOCC1 (stereo not drawn) | 8 | 1
CC1(C)C(=O)NC(=O)N1CC(=O)N1CC(c2cccnc2)C1 | 2 | 1
COc1cccc(O)c1CN1CCCC(c2[nH]ncc2CC(C)C)C1 (stereo not drawn) | 24 | 5
COCCNC(=O)CSc1nc2[nH]ncc2c(=O)[nH]1 | 1 | 1
O=C(O)CCc1nnc(SCC(=O)Nc2cccc(F)c2)[nH]c1=O | 10 | 5
Cc1c(C(=O)NCc2ccc3c(c2)OCCO3)sc(=O)n1Cc1ccccc1C(F)(F)F | -5 | -6
CCN(Cc1nccn1Cc1ccccc1C(F)(F)F)C(=O)c1cccc(OC)c1 | 3 | 12
O=S(=O)(c1ccc2c(c1)nc(SCc1ccc(C(F)(F)F)nc1)n2C1CCCC1)N1CCCC1 | 6 | -2
COc1ccc(Br)c(NC(=O)NCc2ccco2)c1 | 7 | 4
CC(C)c1cc(=O)[nH]c(-n2nc(-c3cccs3)cc2NC(=O)CSCc2ccccc2)n1 | 0 | -2
CC(=O)OC1CCC2(C)C(C(OC=O)CC(C)C23CCC2(COC(O)C2)O3)C1C (stereo not drawn) | 22 | 19
Cc1ccsc1CN(Cc1ccccc1)C(=O)CN(C(=O)/C=C/c1ccccc1)C(C)C | -3 | -9
O=C(NC1CC1)c1cc(-c2ccc(F)cc2)nc2cc(-c3ccccc3)nn12 | -1&3 | 6&14
O=C(CSc1nc2ccccc2s1)N/N=C\c1ccccc1F | 2 | -3
CN1CCN(C(=O)c2nn(-c3cccc(Cl)c3)c(=O)n(Cc3cccc(F)c3)c2=O)CC1 | 0 | -2
COc1cc(C(=O)N2CCN(c3nc4ccccc4nc3C)CC2)cc(OC)c1OC | 11 | 6
C=CCc1c(C)nc2c(-c3ccccc3)cnn2c1N1CCCCC1 | -5 | -7

Looked up above.
Result of O=S(=O)(c1ccc2c(c1)nc(SCc1ccc(C(F)(F)F)nc1)n2C1CCCC1)N1CCCC1 under NPYLR7 ag max-min: -2
Result of O=C(CSc1nc2ccccc2s1)N/N=C\c1ccccc1F under NPYLR7 ag max-min: -3

Further compounds
SMILES | NPYLR7 ag | NPYLR7 ag max-min
CCOC(=O)c1cc(-c2ccc(N3CCN(C(=O)C(C)C)CC3)cc2)n(-c2cccc(F)c2)n1 | 4 | 0
CC(C)(C)[C@]1(O)CCN2C[C@H]3c4ccccc4CCc4cccc(c43)[C@@H]2C1 | 4&9 | -14&2
Nc1ccc2nc(SCc3ccc(F)cc3)sc2c1 | 7 | 0
Cc1ccc(-n2nc3c(c2NC(=O)c2ccc(S(=O)(=O)N(C)C)cc2)CSC3)c(C)c1 | 0 | 6
CCn1cc(CN2CCN(Cc3cccc(F)c3)CC2)cn1 | -8 | -11
Cc1nc(C)c(CN2CCC(C(=O)Nc3cccc(-c4cccc(F)c4)c3)CC2)nc1C | 0 | -3
CCC(C)C(NS(=O)(=O)c1ccc(F)cc1)C(=O)Nc1nnc(-c2ccc(N(C)C)cc2)s1 (stereo not drawn) | -5 | 4
Cc1ccc(C(=O)NCCc2csc3nc(-c4cccc(C)c4)nn23)cc1 | 2 | 1
Fc1ccccc1CNc1nc(NCC2CC2)nc2ccsc12 | 12 | 9
Cc1sc(NC(=O)c2ccco2)c(C(c2cccc(F)c2)N2CCOCC2)c1C (stereo not drawn) | -4 | -7
C=CCSc1ncnc2sc3c(c12)CCC(C)C3 (stereo not drawn) | 0 | -3
c1ccc(-c2cnn3cc(CN4CCCC(Cn5ccnc5)C4)cnc23)cc1 (stereo not drawn) | 0 | -9
Cc1noc(C)c1Cn1nc(-c2ccccc2)ccc1=O | 1 | 7
CC(C)c1sc(NC(=O)CN2CCOCC2)nc1-c1ccccc1 | 3 | 1
COCC(=O)NCc1ccc2c(c1)cc(C)n2C | 1 | -2
O=C(Nc1cccc(-c2ccc(N3CCOCC3)nn2)c1)c1cccs1 | -6 | -6
COc1ccc(-c2c(C)c3ccc(O)c(CN4CC5CC(C4)c4cccc(=O)n4C5)c3oc2=O)cc1 (stereo not drawn) | 9 | 13
Cc1cccc(CO[C@]2(C(=O)NCCN3CCCC3)CC(OCc3cccc(OC(F)(F)F)c3)[C@H](O)[C@H](O)C2)c1 (stereo partly drawn) | 5 | 10
Cc1ccc(NC(=O)C(C2CCCC2)N2CCN(C(=O)c3ccc(Cl)cc3Cl)CC2)cc1F (stereo not drawn) | 2 | 2
COCCN(CC(=O)N(CCc1ccccc1)Cc1ccc(C)o1)C(=O)Nc1cccc(F)c1 | -1 | 8
CCC1C(=O)CC(c2ccco2)NC1c1ccco1 (stereo not drawn) | -5 | -6
COC(=O)[C@@H]1C[C@@H](N(C)C)CN1C/C=C/c1ccco1 | 0 | -2
Cc1cccnc1C(NC(=O)C1CCN(CCCOc2ccc(F)cc2)CC1)c1ccc(F)cc1 (stereo not drawn) | 8 | 10
COc1ccc(NC(=O)C2(C)CCN2CC2CC2)cc1OC (stereo not drawn) | 5 | -2
O=C(COc1ccc(F)cc1)N1CCOC(COc2ccc3c(c2)CCCC3)C1 (stereo not drawn) | 2 | 0
CC(C)Oc1ccc(C(O)=C2C(=O)C(=O)N(Cc3cccnc3)C2c2cccc([N+](=O)[O-])c2)cc1 (stereo not drawn) | -1 | -9
CC(C)(C)c1ccc(C(=O)N2CCN(c3ccc4nnc(-c5ccco5)n4n3)CC2)cc1 | 1 | -2
COc1cccc(C(=O)Nc2cccc(-n3nc(OC)nc3-c3ccc(C(F)(F)F)cc3)c2)c1 | 2 | 5
Cc1nc(SCc2ccccc2)[nH]c(=O)c1CCC(=O)N(C)Cc1cccs1 | -1 | -1
CC(C(=O)N1CCCC1c1nnc2c(C(F)(F)F)cccn12)c1cccc(C(=O)c2ccccc2)c1 (stereo not drawn) | -14 | -18
Cc1nc(C)c(-c2ccc(O)cc2)s1 | 6 | 1
CCOC(=O)c1ccccc1NC(=O)CSc1ccc(-c2ccc(C)cc2)nn1 | 2 | 2
CCn1c(=O)n(C/C=C/c2ccccc2)c2ccccc21 | 8 | 0
COC(=O)c1cc(C=CC(=O)Nc2cc(OC)ccc2OC)oc1C | 15 | 8
CCN(CC(=O)N(Cc1cccn1Cc1ccc(F)cc1)C1CCCCC1)C(=O)C1C[C@H]1c1ccccc1 (stereo partly drawn) | -8 | 0
O=C(NS(=O)(=O)c1cccnc1)c1cc(I)ccc1F | 0 | 0
COC(=O)CCc1c(C)nn(-c2ccc(C(=O)N3CCC(O)(c4ccccc4)CC3)cc2)c1C | -1 | -1
CCCOC1CCCN(C(=O)C(=O)N(C)c2ccccc2)C1 (stereo not drawn) | 7 | 5
C=CCCC(O)CN(Cc1cccc(OC)c1)Cc1ccco1 (stereo not drawn) | 17 | 15
Cc1noc(C(C)NC(=O)CNC(=O)CC23CC4CC(CC(C4)C2)C3)n1 (stereo not drawn) | -1 | 0
CC(C)(C)n1c(NC(=O)C2CCN(C(=O)C3CC3)CC2)nc2ccccc21 | -1 | 3
CN(Cc1ccsc1)S(=O)(=O)c1ccc(S(C)(=O)=O)cc1 | 11 | 4
Cc1cnc(CNC(=O)C2CC(=O)N(CC(C)C)C2)cn1 (stereo not drawn) | 2 | -2
O=C(Oc1coc(CSc2ncccn2)cc1=O)c1cc(C(F)(F)F)cc(C(F)(F)F)c1 | -12 | -5
Cc1cc(C(=O)NCC(=O)NCCOc2cccc(Cl)c2)c(C)o1 | 3 | 13

Exported with values under each structure: 17 of the compounds above.
Each structure is followed by: NPYLR7 ag, NPYLR7 ag max-min
- O=C(CCc1nc(C2CC2)no1)N1CCCC(n2cncn2)C1 (stereo not drawn)
→ 4, 5
- Cn1c(=O)c2c(-c3c(F)cccc3Cl)c(Nc3ccccc3)oc2n(C)c1=O
→ -6, -8
- Cc1cn(C)nc1C(=O)N(Cc1ccccn1)c1nc2c(Cl)cccc2s1
→ 4, 9
- Cn1nnc2c(=O)n(Cc3ccc(C(F)(F)F)cc3)cnc21
→ 0, 5
- CC(Sc1nnc(-c2cccnc2)o1)C(=O)N1CCOCC1 (stereo not drawn)
→ 8, 1
- CC1(C)C(=O)NC(=O)N1CC(=O)N1CC(c2cccnc2)C1
→ 2, 1
- COc1cccc(O)c1CN1CCCC(c2[nH]ncc2CC(C)C)C1 (stereo not drawn)
→ 24, 5
- COCCNC(=O)CSc1nc2[nH]ncc2c(=O)[nH]1
→ 1, 1
- O=C(O)CCc1nnc(SCC(=O)Nc2cccc(F)c2)[nH]c1=O
→ 10, 5
- Cc1c(C(=O)NCc2ccc3c(c2)OCCO3)sc(=O)n1Cc1ccccc1C(F)(F)F
→ -5, -6
- CCN(Cc1nccn1Cc1ccccc1C(F)(F)F)C(=O)c1cccc(OC)c1
→ 3, 12
- O=S(=O)(c1ccc2c(c1)nc(SCc1ccc(C(F)(F)F)nc1)n2C1CCCC1)N1CCCC1
→ 6, -2
- COc1ccc(Br)c(NC(=O)NCc2ccco2)c1
→ 7, 4
- CC(C)c1cc(=O)[nH]c(-n2nc(-c3cccs3)cc2NC(=O)CSCc2ccccc2)n1
→ 0, -2
- CC(=O)OC1CCC2(C)C(C(OC=O)CC(C)C23CCC2(COC(O)C2)O3)C1C (stereo not drawn)
→ 22, 19
- Cc1ccsc1CN(Cc1ccccc1)C(=O)CN(C(=O)/C=C/c1ccccc1)C(C)C
→ -3, -9
- O=C(NC1CC1)c1cc(-c2ccc(F)cc2)nc2cc(-c3ccccc3)nn12
→ -1&3, 6&14

Following part:
SMILES | NPYLR7 ag | NPYLR7 ag max-min
COCCCN(CC(=O)N(CCc1ccccc1)Cc1ccc(C)o1)Cc1cccc(Cl)c1 | 2 | 8
COc1ccccc1C(=O)Nc1cccc(C)c1-c1nc2ncccc2o1 | 18 | 20
CN1CCN(Cc2cccc(C(=O)Nc3ccsc3)c2)CC1 | 6 | 5
O=C(NC1CC1)C1CCCN1C(=O)c1nn(-c2ccccc2)c2c1CCC2 (stereo not drawn) | -4 | -4
CCC(=O)N1CCc2cc(C(=O)N3CCCN(C(=O)Cc4ccccn4)CC3)ccc21 | 3 | 3
CN1CCN(Cc2nc3c(c(=O)n(C)c(=O)n3C)n2Cc2ccccc2Cl)CC1 | 1 | 13
Nc1nc(SCC(=O)N2CCCC2)[nH]c(=O)c1NC(=O)c1ccccc1 | -2 | -7
COc1ccc(S(=O)(=O)Oc2ccc(CN(C(=O)NC(C)C)C3CC3)cc2)cc1 | 23 | 26
COCCCNC(=O)C(NC(=O)c1ccccc1)C1CCNCC1 (stereo not drawn) | 30 | 29
COc1ccc(CCNCC(O)COc2cccc(C)c2)cc1OC (stereo not drawn) | -4 | -10
Cn1cc(CN2CCc3c([nH]c4ccccc34)C2C(C)(C)C)cn1 (stereo not drawn) | -5 | -6
CCN(CC)C(=O)C1CCCN(c2nccc(CCC(F)(F)F)n2)C1 (stereo not drawn) | -1 | -1
CCc1nc2ccc(C(=O)NCCCN3CCCC3=O)cn2c1N(C)C(=O)COc1ccccc1 | -5 | -12
Cc1cc(F)ccc1Oc1cc(N2CCCC2)ncn1 | 32 | 35
Fc1ccccc1Cn1ccnc1CNCC1CCCO1 (stereo not drawn) | -12 | -1
CC(C)CCC(C(N)=O)C1=NC(C)(C)Cc2ccccc21 (stereo not drawn) | 1 | 7
O=C(CN1CN(c2ccccc2)C2(CCN(C(=O)c3cccc(Cl)c3)CC2)C1=O)NCCc1ccc(Cl)cc1Cl | 22 | 26
CCOC(=O)c1nc2ccccc2nc1N1CCCN(C(=O)c2ccc(C)c(C)c2)CC1 | 1 | -1
O=C(CCN(c1nc(C2CC2)nc2ccccc12)C1CC1)N1CCN(c2ccccc2F)CC1 | 4 | 5
O=C1C(=O)N(Cc2cc(=O)n3ccsc3n2)C(=O)N1CCc1cccs1 | 2 | 10
NC(COCc1ccccc1)c1csc(Nc2ccc(C(=O)NCCCO)cn2)n1 (stereo not drawn) | -4 | -10
Cc1cc(C)c(S(=O)(=O)N=Nc2c(O)[nH]c3ccc(Br)cc23)c(C)c1 | 5 | 3
Cn1c(=O)oc2cc(S(=O)(=O)NCC3COc4ccccc4O3)ccc21 (stereo not drawn) | 2 | 2
Cc1ccc(NC(=O)c2sc(NC(=O)C(C)(C)C)cc2C)c(Cl)c1 | -1 | -4
O=C(c1ccc(NCc2ccoc2)nc1)N1CCC(N2CCOCC2)CC1 | -1 | -4
CCOC(=O)c1c(CC(C)C)csc1NC(=O)c1c(C)noc1C | 8 | 8
COc1ccc2c(c1)C1(SC(C)(C)CN1C(=O)Nc1cccc(F)c1)C(=O)N2 (stereo not drawn) | 4 | 7
CCCC(=O)Nc1c(-c2ccc(OC)cc2)nc2ccc(C)cn12 | -2 | -1
CC(C)Cc1nc(CSc2n[nH]c(N)n2)no1 | -2 | 2
O=C(O[C@@H]1Cc2c(O)cc(O)cc2O[C@@H]1c1cc(O)c(=O)c2c(O)c(O)cc([C@H]3Oc4cc(O)cc(O)c4C[C@H]3OC(=O)c3cc(O)c(O)c(O)c3)c2c1)c1cc(O)c(O)c(O)c1 | -1 | -8
